# Sa RN4220 lethal: kills Staphylococcus aureus RN4220 | S. aureus RN4220 growth, OD600, 16 h | inhibition, % (concentration not given with the values) | hit rate 0.33% among 330,000;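 active = z-score of -3 or lower and OD600 up to 0.18 on both plates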;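 note: plate controls were untreated cells for no effect and reference antibiotic for full effect; stock transfer was 100 nL into about 80 µL; one replicate is shown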
# PrP UTR inh: suppresses PrP 5' UTR mRNA reporter expression. cell-based PrP 5' UTR mRNA reporter, plate reader. inhibition, % (no concentration beside the values). hit rate 0.35% among 340,000. AID 488862;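 active = every replicate at 50% or more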;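 note: 0 = median of the neutral control wells; tested in H4 reporter cells; numbers are from one replicate; inactives centre near -14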
# ugtP null kill: kills S. aureus RN4220 lacking UgtP; S. aureus RN4220 ugtP deletion, OD600 growth, 16 h; some inactives read as strong as hits; growth inhibition, % (concentration not given with the values); hit rate 0.54% among 330,000; AID 1259309;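 active = z-score under -3 and OD600 up to 0.15 on both plates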;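 note: plate controls were untreated wells for no effect and antibiotic for full effect; wells of about 80 µL received 100 nL stock; the first replicate is given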
# Mtb hypoxia inh: reduces hypoxia-regulated biosensor signal in M. tuberculosis; M. tuberculosis hypoxia-regulated fluorescent reporter, fluorescence; fluorescence inhibition, % (concentration not given with the values); hit rate 0.1% among 300,000;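 active = 35 to 45% if threefold the growth effect, above 45% if 1.5-fold the growth effect; inactive = the rest, general growth blockers included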;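 note: wells of about 50 µL received 100 nL stock; 0% = vehicle wells and 100% = reference inhibitor wells; whole bacteria with a GFP reporter of the hypoxia response; strong numbers were not always called active; many hits fall short of the cut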
# BJeLR lethal: kills HRASV12-expressing BJeLR cells; inhibition, % (no concentration beside the values); hit rate 0.17% among 300,000; BJeLR (HRASV12) viability, CellTiter-Glo ATP luminescence, 48 h; reference of the scale not given here; AID 1554;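 active = replicate mean above 50%; inconclusive = above 50% but judged a plate artefact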;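 note: 50 nL library stock added to about 25 µL; numbers are from one replicate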
# Autofluor counter: compound fluorescence in toxin protease inhibitor counterscreen | compound autofluorescence counterscreen, microsphere flow cytometry; stronger effect = higher value | fluorescence intensity (no concentration beside the values) | AID 624483 | hit rate 3.1% among 360,000;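 active = at least 3 SD above the mean of all compounds, about 16000 in these data; inconclusive = too few beads counted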;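 note: 100 nL of 1 mM stock went into each well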
# Mtb hypoxia inh growth: further read-out of Mtb hypoxia inh, marked with its call; growth inhibition, %; measured here: M. tuberculosis growth (absorbance);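 0% = vehicle and 100% = reference antibiotic; read after six days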
# Starred values were filed as active, the others as inactive; ? = inconclusive; / = no result given. This is a random part of the collection (roughly 4.1% active in at least one column).
molecule	Sa RN4220 lethal	PrP UTR inh	ugtP null kill	Mtb hypoxia inh	Mtb hypoxia inh growth	BJeLR lethal	Autofluor counter
COC(=O)COc1ccc(NC(=O)C(c2ccccc2)c2ccccc2)cc1	0.1	-27.2	6.9	-1.2	9.0	0.8	3309
Cc1cc(C)c(S(=O)(=O)N2CCN(C(=O)N3CCOCC3)CC2)c(C)c1	7.5	-17.2	2.9	11.7	5.6	0.1	3390
COc1cc(/C=N/NC(=S)NCCN2CCOCC2)cc(OC)c1OC	/	-11.4	/	/	/	-0.4	2444
O=[N+]([O-])c1ccc(Sc2ccc(F)cc2)nc1	11.7	-15.5	-2.0	4.7	15.4	-0.9	5805
O=C(c1cccc(S(=O)(=O)Nc2cccc(C(F)(F)F)c2)c1)N1CCOCC1	3.0	-18.1	0.6	12.0	5.4	-5.4	4023
COC(=O)c1[nH]c2ccc(Br)cc2c1NC(=O)C(C)N1CCN(C2CCCCC2)CC1 (stereo unspecified)	-13.5	-16.0	-0.1	-7.7	7.1	0.6	3201
O=C(c1cccn2c(=O)c3cc(Br)ccc3nc12)N1CCN(c2ccccn2)CC1	-1.6	-35.0	-2.0	-2.1	-12.3	/	18386*
Cc1ccc(CNC(=O)CCS(=O)(=O)c2ccc(Cl)cc2)cc1	3.9	-10.6	2.5	8.2	3.2	2.7	2470
Cc1cc(C)n(C(=O)CSc2nc3ccccc3o2)n1	1.2	-23.2	-1.3	4.8	-1.7	0.6	20678*
Cc1cc(C)n(-c2ccc(C(=O)N3CCN(S(=O)(=O)c4ccc(Cl)cc4)CC3)cc2)n1	1.6	-14.0	1.3	7.2	-15.7	/	3970
CC1=CC(C)[C@H](/C=N/n2c(=O)[nH]c3c([nH]c4ccc(Br)cc43)c2=O)C(C)C1 (stereo partly specified)	/	-2.4	/	/	/	6.1	4075
CNC(=S)NN=Cc1ccco1	2.2	/	-4.0	12.0	7.6	/	/
C=C(C)CN(CC)C(=O)CN1C(=O)NC2(CCc3ccccc32)C1=O (stereo unspecified)	5.3	3.5	11.1	9.5	0.9	-2.6	4576
CCN1C(=O)CC(N2CCN(c3ccc(OC)cc3)CC2)C1=O (stereo unspecified)	2.3	-4.5	-1.7	9.6	16.0	3.7	5576
Cc1cccc(NC(=O)c2cc(-c3ccc(C)s3)nc3ccccc23)n1	-6.5	-36.6	23.2	4.0	4.0	-5.4	2158
CC1=C(C#N)C(c2ccccc2O)C(C#N)=C(C)N1	6.7	-18.2	7.8	6.2	3.2	-7.7	2000
CC(C)CNC(=O)Nc1ccccc1F	2.4	-9.8	4.6	6.2	1.4	-8.2	2027
CCOC(=O)C(O)(CC(=O)c1ccc(OC)cc1)C(F)(F)F (stereo unspecified)	1.5	-0.2	1.6	4.4	-1.0	-4.4	3286
O=C(C1CCCCN1S(=O)(=O)c1ccccc1[N+](=O)[O-])N1CCOCC1 (stereo unspecified)	1.9	-17.3	-1.7	2.4	4.6	5.0	4278
Cn1ccnc1SCC(=O)Nc1cccc(C(F)(F)F)c1	2.2	-5.7	0.8	2.2	5.1	-14.8	9149
Cn1c(=O)n(C)c2cc(NC(=O)c3ccc(F)cc3)ccc21	6.0	17.0	3.0	-3.3	3.0	9.7	2872
C=CC[C@@H](CC(=O)N(CCO)Cc1ccccc1)C(=O)NCCOC(=O)[C@@H](CC=C)Cc1ccc(F)cc1	3.0	-11.7	-1.9	1.4	1.5	/	3387
Cc1[nH]n(-c2ccccc2)c(=O)c1N=Nc1ccccc1C(=O)O	11.6	-56.7	4.6	11.2	3.0	-2.8	3116
C=CCNC(=S)N1CC2(C)CN(C(=S)NCC=C)CC(C)(C1)C2=O	6.1	-24.3	15.0	8.5	-2.6	-8.3	4247
Cc1nc(C)c(C(=O)OCC(=O)NCc2ccccc2)s1	2.9	-0.7	2.9	-12.0	0.7	/	3730
COc1cccc(C(=O)N2CCN(C(=O)c3cccc4ccccc34)CC2)c1OC	1.6	3.1	12.2	/	/	7.6	2470
Cc1nc2ccc(NC(=O)N3CCN(c4ccccn4)CC3)cc2s1	3.5	-7.9	2.6	/	/	5.4	4205
CC1CCCCN1C(=O)Cc1ccc(F)cc1 (stereo unspecified)	5.0	-9.6	1.8	11.4	18.1	4.9	8260
N#CC1=C(N)Oc2ccc3ccc(O)cc3c2C1c1cccnc1 (stereo unspecified)	10.9	-6.1	14.7	9.2	3.6	-13.5	5559
O=C(c1cccc([N+](=O)[O-])c1)N1CCCC(C(=O)N2CCc3ccccc3C2)C1 (stereo unspecified)	-5.7	-20.6	-5.8	1.0	-1.1	-0.2	5610
COCc1ccc(C(=O)N(C)CC2CCCN(CCc3ccccc3F)C2)o1 (stereo unspecified)	1.7	-2.6	-1.2	-11.6	-19.8	-5.2	6050
CCCCc1c(O)nc2sccn2c1=O	4.8	-24.1	3.7	3.5	-2.1	8.0	2588
COc1cc2c(cc1NC(=O)COC(=O)C(CCSC)NC(=O)c1ccccc1Cl)oc1ccccc12 (stereo unspecified)	-2.1	-17.8	-5.6	6.3	3.8	-16.0	2679
O=C(C[n+]1cc[nH]c1)c1ccc(Cl)cc1	-0.4	-12.4	6.0	8.2	1.3	11.2	3972
Cc1ccc2oc(=S)n(C)c2c1	2.9	-21.9	5.7	4.4	-1.7	-2.4	2111
Nc1cc(C(=O)Nc2ccc(Cl)cc2)ccc1N1CC2CC(C1)c1cccc(=O)n1C2 (stereo unspecified)	-2.2	-1.9	8.5	11.4	1.0	-11.6	4438
Nc1ccc(C(O)(C(F)(F)F)C(F)(F)F)cc1	5.4	-5.8	8.4	7.1	5.3	-6.8	16402*
Cc1ccc(C(=O)N2CCC(C)CC2)cc1C	4.8	-25.0	1.1	/	/	-1.5	5934
O=c1ccnc(SCc2ccccc2Cl)[nH]1	5.9	-19.6	-10.4	2.3	12.2	1.7	16496*
COc1ccc(NC(=O)CN(C)C(=O)c2ccc3ccccc3n2)cc1	1.0	-17.1	5.4	-6.6	-5.4	/	3796
CCCOc1ccc(-c2nc(C#N)c(NCC3CCCO3)o2)cc1 (stereo unspecified)	0.2	-26.4	24.5	9.7	10.8	4.8	24772*
CC1(c2nnc(-c3ccc(F)cc3)o2)CC(c2ccc(F)cc2)=NO1 (stereo unspecified)	-0.3	-42.5	4.1	10.8	12.1	3.8	4431
O=S(=O)(NCc1ccc2c(c1)OCO2)c1ccc2c(c1)oc1ccccc12	11.7	-26.2	0.4	9.5	10.3	8.7	7895
COc1ccccc1-n1cnnc1SCC(=O)N1CCN(S(=O)(=O)c2ccccc2)CC1	-2.3	-3.1	-4.9	2.2	1.5	0.6	4757
CCN(CC)CCN(C(=O)c1ccc2c(c1)CCCC2)c1nc2c(C)cccc2s1	-6.8	-10.7	-0.9	-2.9	3.4	-0.7	5381
COC(=O)c1ccc(COC(=O)CNC(=O)c2ccc(C)s2)cc1	2.7	-23.6	7.9	3.0	1.0	/	7056
COc1cccc(CNC(=O)[C@@H](C)N2C(=O)N3CCc4c([nH]c5ccc(OC)cc45)C3(C)C2=O)c1 (stereo partly specified)	4.7	-2.4	-7.9	/	/	5.6	5644
CCN1CCN(c2nc(Nc3ccccc3)nc(N)c2[N+](=O)[O-])CC1	5.8	-3.8	-1.2	3.8	-2.6	16.1	2374
Cc1cc(C)cc(NC(=O)CCn2cnc3cc(C)c(C)cc32)c1	1.3	3.2	-4.1	1.6	17.0	9.1	4791
CCC(CO)Oc1cc(NCc2ccccc2)c2ncn(C(C)C)c2c1 (stereo unspecified)	6.3	4.0	-6.0	12.4	5.8	/	4155

# Later entries:
molecule	Sa RN4220 lethal	PrP UTR inh	ugtP null kill	Mtb hypoxia inh	Mtb hypoxia inh growth	BJeLR lethal	Autofluor counter
CC(c1ccccc1)n1cc(C(=O)NCC2CCCO2)nn1 (stereo unspecified)	3.3	-80.1	7.0	/	/	0.1	4284
Cc1ccc(OCC(=O)NC(C)c2ccccc2)cc1C (stereo unspecified)	0.1	-16.2	-3.3	11.5	4.0	4.4	3637
COc1ccc(CCN2CC(C(=O)N(C)Cc3cccnc3)CC2=O)cc1OC (stereo unspecified)	3.5	12.1	-1.6	-0.4	10.4	/	?
COc1ccc(/C=C(\NC(=O)c2ccc(OC)cc2)C(=O)N2CCCCC2)cc1	1.7	-2.8	10.7	0.0	-0.5	-3.6	3099
C#CC1(O)CCC2C3CCC4=C/C(=N/OCC(=O)NCC(=O)NC(C(=O)O)C(C)C)CC[C@]4(C)C3CC[C@@]21C (stereo partly specified)	/	5.9	/	/	/	4.1	3161
CCCN1C(=O)c2ccc(C(=O)NC3=NCCS3)cc2C1=O	8.6	-21.2	-8.7	1.3	4.2	22.1	2531
Cc1cccc(OCC(=O)Nc2ccc(N3CCN(C(=O)c4ccco4)CC3)cc2)c1C	4.9	15.6	0.7	1.6	12.0	0.5	4129
CCN(CC)C(=O)CSc1nnc([C@H](Cc2c[nH]c3ccccc23)NC(=O)OC(C)(C)C)o1	6.3	-16.3	-11.8	14.8	5.9	-14.8	8847
COc1ccccc1OCC(=O)Nc1ccc(S(=O)(=O)N2CCCCCC2)cc1	-2.2	-3.9	-18.5	0.8	4.6	5.1	10410
Cc1cccc(NS(=O)(=O)c2ccc(C(=O)N3CCC3)cc2)c1C	3.7	3.2	-1.2	-15.5	1.0	3.3	?
CC(C)(C)CC(=O)Nc1nnc(SCC(=O)N2CCCCC2)s1	2.4	-18.2	3.2	-1.2	9.1	-10.7	3504
CC1CCCC(C)N1C(=O)Cn1cc(/C=C2/C(=O)Nc3ccccc32)c2ccccc21 (stereo unspecified)	/	-3.7	/	/	/	-1.0	3040
C=CCSc1nc(C)c(CC(=O)OCC(C)C)c(=O)[nH]1	-13.1	-21.9	-3.6	3.1	6.6	-4.3	2447
C/C(=N\Nc1cccc2cccnc12)c1ccc(C)cc1	/	-77.6	/	/	/	-4.9	5088
O=C(NCCOc1ccccc1)c1cc2ccccc2o1	0.6	-54.1	-0.3	1.2	10.1	11.7	4543
O=c1c(=Cc2cccnc2)sc2nc3ccccc3n12	-0.6	/	1.5	0.8	5.3	/	/
O=C(COc1ccccc1)n1nc(-c2ccc(Cl)cc2)nc1NCc1ccco1	0.3	-37.8	-8.2	-1.3	12.1	-1.2	21640*
CC(=NNC(=O)C1COc2ccccc2O1)c1ccccn1 (stereo unspecified)	6.4	/	-8.3	-3.7	-0.9	/	/
COc1ccc(C(=S)N(C)C)cc1OC	3.0	-9.1	9.1	/	/	-2.9	2391
Cn1nc(C(=O)Nc2nc3ccccc3[nH]2)ccc1=O	6.7	-40.3	5.4	0.3	-4.7	6.4	2035

# Structures above that have a thiophene ring, fused or not, in the order listed:
molecule	Sa RN4220 lethal	PrP UTR inh	ugtP null kill	Mtb hypoxia inh	Mtb hypoxia inh growth	BJeLR lethal	Autofluor counter
Cc1cccc(NC(=O)c2cc(-c3ccc(C)s3)nc3ccccc23)n1	-6.5	-36.6	23.2	4.0	4.0	-5.4	2158
COC(=O)c1ccc(COC(=O)CNC(=O)c2ccc(C)s2)cc1	2.7	-23.6	7.9	3.0	1.0	/	7056

# Continuation.
molecule	Sa RN4220 lethal	PrP UTR inh	ugtP null kill	Mtb hypoxia inh	Mtb hypoxia inh growth	BJeLR lethal	Autofluor counter
CCOC(=O)N1CCN(CC(=O)Nc2ccc(F)c(F)c2)CC1	4.7	11.2	5.8	0.5	3.9	2.9	3392
COc1ccccc1OCCCOc1ccc([N+](=O)[O-])cc1Cl	15.2	-40.5	5.0	/	/	-3.3	4427
CN(C)S(=O)(=O)n1cc(/C=C(\NC(=O)c2ccccc2Cl)C(=O)NCCCn2ccnc2)c2ccccc21	2.4	-22.4	2.7	6.7	5.7	-4.0	6418
CCOc1cccc(-c2c(C(=O)N/N=C(\C)c3cccs3)nnn2-c2nonc2N)c1	/	-5.4	/	/	/	-3.0	6181
CCO/N=C(\C)c1c(O)cc(C(C)C)n(-c2ccccc2)c1=O	/	-8.7	/	/	/	14.4	6819
Cc1ccc(N(CC(=O)N(C)Cc2ccccc2)S(C)(=O)=O)cc1C	4.2	-14.8	2.4	2.8	0.0	-4.6	3085
COc1ccc(OC)c(NC(=O)Cc2coc3ccc(C)cc23)c1	26.1	-25.3	-0.4	5.3	2.2	-4.0	9700
